Screening results (PubChem)
UUG fidelity: modulators of start codon recognition fidelity in yeast; S. cerevisiae UUG-firefly luciferase reporter, luminescence/redox ratio; activity score, % at 18.7 µM; 350,000 compounds, 0.13% hits;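 active = replicate mean at a twofold rise or more, about +100% in these data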;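 also: firefly luciferase made from a UUG start codon reports start codon fidelity; reporter light over untreated wells divided by growth signal over untreated wells; some hits fall short of that in this replicate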
HIV Env fusion: blocks HIV Env-driven cell-cell fusion; 360,000 compounds, 1.1% hits; inhibition, % at 12.3 µM; HeLa-JRFL Env/CEM21 cell fusion, luciferase;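 active = mean replicate inhibition score of at least 50 and every replicate individually at or above 50; inconclusive = only one of the two criteria met; inactive = mean below 50 and not all replicates reaching 50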;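 also: 0% = plate neutral controls and 100% = maraviroc near 300 nM; one replicate is shown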
An asterisk follows results filed as active; ? = inconclusive; [ ] = dose if it differs, or a comment. These rows are one share of the data; the hit share may differ from the screen's.

A first look, five compounds:
Each structure is followed by: UUG fidelity | HIV Env fusion
1	C=CCNC(=O)[C@H]1[C@@H]2C(=O)O[C@@H](c3ccccc3)[C@@H](c3ccccc3)N2[C@@H](c2ccc(OCCO)cc2)[C@]12C(=O)N(C(=O)OCCOC)c1ccc(C#Cc3ccc(OC)cc3)cc12
 : -6 | -9[16.7 µM]
2	COc1ccc(NC(=O)N(C)C[C@H]2OCCCC[C@H](C)Oc3ccc(NS(=O)(=O)c4ccccc4)cc3C(=O)N([C@@H](C)CO)C[C@@H]2C)cc1
 : 17 | -4[16.7 µM]
3	O=C(O)C[C@@H]1CC[C@@H](NC(=O)Nc2cc(F)ccc2F)[C@@H](CO)O1
 : -10 | 6[16.7 µM]
4	O=C(N[C@@H]1CC[C@H](CC(=O)N2CCCCC2)O[C@H]1CO)c1ccccn1
 : -10 | 24[16.7 µM]
5	CCCNC(=O)C[C@@H]1CC[C@H]2[C@H](COc3ccc(NC(=O)c4cc(C)on4)cc3C(=O)N2C)O1
 : 26 | 17[16.7 µM]

The listing, from the start:
Each structure is followed by: UUG fidelity | HIV Env fusion
1	C=CCNC(=O)[C@H]1[C@@H]2C(=O)O[C@@H](c3ccccc3)[C@@H](c3ccccc3)N2[C@@H](c2ccc(OCCO)cc2)[C@]12C(=O)N(C(=O)OCCOC)c1ccc(C#Cc3ccc(OC)cc3)cc12
 : -6 | -9[16.7 µM]
2	COc1ccc(NC(=O)N(C)C[C@H]2OCCCC[C@H](C)Oc3ccc(NS(=O)(=O)c4ccccc4)cc3C(=O)N([C@@H](C)CO)C[C@@H]2C)cc1
 : 17 | -4[16.7 µM]
3	O=C(O)C[C@@H]1CC[C@@H](NC(=O)Nc2cc(F)ccc2F)[C@@H](CO)O1
 : -10 | 6[16.7 µM]
4	O=C(N[C@@H]1CC[C@H](CC(=O)N2CCCCC2)O[C@H]1CO)c1ccccn1
 : -10 | 24[16.7 µM]
5	CCCNC(=O)C[C@@H]1CC[C@H]2[C@H](COc3ccc(NC(=O)c4cc(C)on4)cc3C(=O)N2C)O1
 : 26 | 17[16.7 µM]
6	COc1ccccc1CNC(=O)C[C@@H]1C[C@H]2c3cc(NC(=O)C4CCC4)ccc3O[C@H]2[C@@H](CO)O1
 : 2 | 10[16.7 µM]
7	O=C(C[C@@H]1C=C[C@@H](NC(=O)Nc2ccc(F)cc2)[C@@H](CO)O1)NCc1ccccn1
 : -13 | 11[16.7 µM]
8	Cc1noc(C)c1S(=O)(=O)N(C)C[C@H]1Oc2c(NS(=O)(=O)c3cn(C)cn3)cccc2C(=O)N([C@@H](C)CO)C[C@@H]1C
 : -6 | 6[16.7 µM]
9	CC(C)C#Cc1cnc2c(c1)C(=O)N([C@@H](C)CO)C[C@H](C)[C@H](CN(C)C(=O)c1ccccc1F)O2
 : 15 | 11[16.7 µM]
10	CC(C)CC#Cc1cnc2c(c1)C(=O)N([C@H](C)CO)C[C@@H](C)[C@H](CN(C)Cc1ccc(F)cc1)O2
 : -1 | 23[16.7 µM]
11	Cc1noc(C)c1S(=O)(=O)N(C)C[C@H]1Oc2ccc(NC(=O)Cn3cnnn3)cc2CC(=O)N([C@H](C)CO)C[C@@H]1C
 : 3 | -16[16.7 µM]
12	COc1ccc(NC(=O)Nc2ccc3c(c2)C(=O)N([C@H](C)CO)C[C@@H](C)[C@@H](CN(C)Cc2ccc4c(c2)OCO4)O3)cc1
 : -3 | -4[16.7 µM]
13	C[C@@H]1CN([C@@H](C)CO)C(=O)c2cc(-c3cccc(F)c3)cnc2O[C@H]1CN(C)S(=O)(=O)c1cccc(F)c1
 : 9 | 2[16.7 µM]
14	C[C@H]1CN([C@@H](C)CO)C(=O)c2cc(NS(=O)(=O)c3ccc(F)cc3)ccc2O[C@H]1CN(C)C(=O)Nc1ccc(C(F)(F)F)cc1
 : 7 | 3[16.7 µM]
15	C[C@H]1CN([C@@H](C)CO)C(=O)c2cc(NS(=O)(=O)c3ccccc3)ccc2O[C@H]1CN(C)Cc1ccccc1
 : 7 | -24[16.7 µM]
16	C[C@H](O)C#Cc1cnc2c(c1)C(=O)N([C@@H](C)CO)C[C@H](C)[C@H](CN(C)Cc1ccccn1)O2
 : -19 | -16[16.7 µM]
17	COc1ccc(CN(C)C[C@@H]2OCCCC[C@H](C)Oc3ccc(NC(=O)Nc4cccc5ccccc45)cc3C(=O)N([C@H](C)CO)C[C@H]2C)cc1
 : 7 | 32[16.7 µM]
18	C[C@@H]1CN([C@H](C)CO)C(=O)c2cc(NS(=O)(=O)c3ccc(Cl)cc3)ccc2O[C@@H](C)CCCCO[C@H]1CN(C)Cc1ccc(Cl)c(Cl)c1
 : 10 | -12[16.7 µM]
19	O=S(=O)(N[C@H]1CC[C@@H](CCn2cc(-c3ccccn3)nn2)O[C@@H]1CO)c1cccc(Cl)c1
 : -13 | -2[16.7 µM]
20	C[C@H](CO)N1C[C@H](C)[C@@H](CN(C)CC2CCCCC2)Oc2c(NC(=O)Nc3ccccc3)cccc2C1=O
 : 9 | -10[16.7 µM]
21	O=C(NCC[C@@H]1CC[C@@H](NS(=O)(=O)Cc2ccccc2)[C@@H](CO)O1)C1CCCC1
 : 6 | 2[16.7 µM]
22	Cc1noc(C)c1NC(=O)N(C)C[C@@H]1Oc2ccc(NS(C)(=O)=O)cc2CC(=O)N([C@H](C)CO)C[C@H]1C
 : -8 | -22[16.7 µM]
23	CN1C(=O)c2cc(NC(=O)C3CCCCC3)ccc2OC[C@H]2O[C@H](CC(=O)NCCc3ccncc3)CC[C@@H]21
 : -7 | 2[16.7 µM]
24	Cc1noc(C)c1NC(=O)N(C)C[C@@H]1Oc2c(NS(C)(=O)=O)cccc2C(=O)N([C@@H](C)CO)C[C@@H]1C
 : -4 | 6[16.7 µM]
25	CO[C@@H]1CN(C)C(=O)c2ccc(NC(=O)NC(C)C)cc2OC[C@@H](C)N(C(=O)NC(C)C)C[C@@H]1C
 : 10 | -2[16.7 µM]
26	C[C@@H]1CCCCO[C@@H](CN(C)C(=O)c2ccccc2)[C@H](C)CN([C@H](C)CO)C(=O)c2cc(NC(=O)NC3CCCCC3)ccc2O1
 : 6 | 16[16.7 µM]
27	Cc1cccc(S(=O)(=O)N[C@@H]2CC[C@@H](CCn3cc(-c4ccccn4)nn3)O[C@@H]2CO)c1
 : -10 | -1[16.7 µM]
28	C[C@H]1CN([C@@H](C)CO)C(=O)c2cccc(NC(=O)NC3CCCCC3)c2O[C@H]1CN(C)Cc1ccc2c(c1)OCO2
 : 4 | 4[16.7 µM]
29	C[C@@H]1CN([C@@H](C)CO)S(=O)(=O)c2ccc(-c3ccc(F)cc3)cc2O[C@@H]1CN(C)CC1CC1
 : 22 | -22[16.7 µM]
30	CN(C)C(=O)c1cccc(-c2ccc([C@@H]3[C@@H](C#N)N(C(=O)C4CCC4)[C@@H]3CO)cc2)c1
 : 6 | 4[16.7 µM]
31	CCCC#Cc1cnc2c(c1)C(=O)N([C@H](C)CO)C[C@@H](C)[C@@H](CN(C)C(=O)c1cccc(F)c1)O2
 : -4 | 13[16.7 µM]
32	CCS(=O)(=O)NCC[C@@H]1CC[C@@H](NS(=O)(=O)c2cccc(F)c2)[C@H](CO)O1
 : -12 | -20[16.7 µM]
33	COc1ccc(NC(=O)N(C)C[C@@H]2Oc3ccc(NC(=O)NC4CCCCC4)cc3C(=O)N([C@H](C)CO)C[C@@H]2C)cc1
 : -7 | 28[16.7 µM]
34	Cc1noc(C)c1S(=O)(=O)Nc1ccc2c(c1)C(=O)N([C@H](C)CO)C[C@@H](C)[C@H](CN(C)Cc1ccc3c(c1)OCO3)OCCCC[C@@H](C)O2
 : 15 | 15[16.7 µM]
35	C[C@H]1CN([C@@H](C)CO)C(=O)Cc2cc(NS(=O)(=O)c3ccc(Cl)cc3)ccc2O[C@@H]1CN(C)S(=O)(=O)c1ccc(Cl)cc1
 : -5 | -4[16.7 µM]
36	O=C(C[C@@H]1C=C[C@@H](NC(=O)c2cnccn2)[C@@H](CO)O1)NCc1ccccc1F
 : -8 | -9[16.7 µM]
37	CC(C)c1cn(CC[C@H]2CC[C@H](NS(=O)(=O)c3ccccc3)[C@@H](CO)O2)nn1
 : -18 | 10[16.7 µM]
38	C[C@@H]1CN([C@@H](C)CO)C(=O)c2cc(C#Cc3ccccn3)cnc2O[C@@H]1CN(C)Cc1cccnc1
 : -1 | -10[16.7 µM]
39	O=C(C[C@@H]1CC[C@@H](NC(=O)Nc2ccc(F)cc2)[C@H](CO)O1)NCc1ccccn1
 : -8 | -5[16.7 µM]
40	COc1ccc(CN(C)C[C@@H]2Oc3ccc(NS(=O)(=O)c4ccc(OC)cc4)cc3C(=O)N([C@@H](C)CO)C[C@H]2C)cc1
 : 8 | 9[16.7 µM]
41	Cc1noc(C)c1NC(=O)N(C)C[C@@H]1Oc2ncc(C#CCN(C)C)cc2C(=O)N([C@H](C)CO)C[C@H]1C
 : 15 | -32[16.7 µM]
42	Cc1ccc(S(=O)(=O)N[C@H]2CC[C@@H](CCNC(=O)C3CCOCC3)O[C@H]2CO)cc1
 : -5 | 7[16.7 µM]
43	CCC(=O)Nc1ccc2c(c1)C(=O)N(C)[C@@H]1CC[C@H](CC(=O)Nc3cccc(OC)c3)O[C@@H]1CO2
 : 0 | -13[16.7 µM]
44	C[C@@H]1CN([C@@H](C)CO)C(=O)c2cc(/C=C/c3ccccc3)cnc2O[C@@H]1CN(C)C(=O)Nc1ccc(C(F)(F)F)cc1
 : 6 | 24[16.7 µM]
45	COCCNC(=O)C[C@H]1C[C@H]2c3cc(NC(=O)Nc4ccccc4F)ccc3O[C@H]2[C@H](CO)O1
 : -8 | 14[16.7 µM]
46	C[C@H]1CN([C@@H](C)CO)C(=O)c2cccc(NC(=O)C3CC3)c2O[C@H]1CN(C)C(=O)Nc1ccccc1
 : -5 | 9[16.7 µM]
47	C[C@@H](NC(=O)C[C@@H]1CC[C@@H](NC(=O)Nc2ccc3c(c2)OCO3)[C@@H](CO)O1)c1ccccc1
 : -12 | 4[16.7 µM]
48	COc1ccccc1-c1cnc2c(c1)C(=O)N([C@H](C)CO)C[C@@H](C)[C@H](CN(C)Cc1ccc(F)cc1)O2
 : 9 | 23[16.7 µM]
49	CCCN(C)C[C@@H]1OCCCC[C@@H](C)Oc2ccc(NC(=O)Cc3ccccc3)cc2C(=O)N([C@H](C)CO)C[C@@H]1C
 : 4 | -5[16.7 µM]
50	C/C=C/c1cnc2c(c1)C(=O)N([C@@H](C)CO)C[C@@H](C)[C@@H](CN(C)C(=O)Nc1cccc(OC)c1)O2
 : 6 | -9[16.7 µM]
51	CO[C@@H]1CN(C)C(=O)c2ccc(NS(=O)(=O)c3ccc(Cl)cc3)cc2OC[C@@H](C)N(C)C[C@H]1C
 : -7 | 0[16.7 µM]
52	C[C@H]1CN([C@@H](C)CO)C(=O)c2cc(C#Cc3ccncc3)cnc2O[C@H]1CN(C)S(=O)(=O)c1ccccc1F
 : 0 | 13[16.7 µM]
53	CC(=O)N(C)C[C@H]1Oc2ncc(C#Cc3cccnc3)cc2C(=O)N([C@@H](C)CO)C[C@@H]1C
 : -4 | 5[16.7 µM]
54	CC(C)CC#Cc1ccc2c(c1)O[C@@H](CN(C)C(=O)C1CCC1)[C@H](C)CN([C@@H](C)CO)S2(=O)=O
 : 18 | 31[16.7 µM]
55	C[C@@H]1CN([C@@H](C)CO)C(=O)c2cc(N(C)C)ccc2O[C@@H]1CN(C)C
 : -5 | -3[16.7 µM]
56	C[C@@H]1CN([C@@H](C)CO)C(=O)c2cc(C#CCC3CCCC3)cnc2O[C@H]1CN(C)C(=O)c1cnccn1
 : 9 | 12[16.7 µM]
57	CC(C)CC#Cc1cnc2c(c1)C(=O)N([C@H](C)CO)C[C@H](C)[C@H](CN(C)Cc1ccc(F)cc1)O2
 : 0 | 29[16.7 µM]
58	CCCNC(=O)N(C)C[C@H]1Oc2ncc(C3=CCCCC3)cc2C(=O)N([C@@H](C)CO)C[C@H]1C
 : 3 | 10[16.7 µM]
59	C[C@@H]1CN([C@H](C)CO)C(=O)Cc2cc(NS(C)(=O)=O)ccc2O[C@H]1CN(C)S(=O)(=O)c1ccc(F)cc1
 : -4 | 11[16.7 µM]
60	Cc1ccccc1-c1ccc2c(c1)O[C@@H](CN(C)C(=O)C1CC1)[C@H](C)CN([C@H](C)CO)S2(=O)=O
 : 0 | -10[16.7 µM]

Further structures.
Each structure is followed by: UUG fidelity | HIV Env fusion
61	C[C@H](CO)N1C[C@H](C)[C@@H](CN(C)Cc2cccnc2)Oc2ncc(-c3cccc(F)c3)cc2C1=O
 : -3 | -65[16.7 µM]
62	C[C@H](CO)N1C[C@H](C)[C@@H](CN(C)Cc2ccc(C(F)(F)F)cc2)Oc2ccc(N(C)C)cc2C1=O
 : 9 | ?
63	C[C@@H]1CN([C@@H](C)CO)C(=O)c2cc(-c3cccnc3)cnc2O[C@@H]1CN(C)C(=O)c1ccccc1F
 : -7 | -11[16.7 µM]
64	Cc1ccc(S(=O)(=O)N(C)C[C@@H]2Oc3c(NC(=O)Nc4ccc(C(F)(F)F)cc4)cccc3C(=O)N([C@@H](C)CO)C[C@@H]2C)cc1
 : -14 | 1[16.7 µM]
65	C[C@@H]1CCCCO[C@H](CN(C)C)[C@H](C)CN([C@@H](C)CO)C(=O)c2cc(NC(=O)CCC(F)(F)F)ccc2O1
 : 7 | 0[16.7 µM]
66	Cc1noc(C)c1NC(=O)Nc1ccc2c(c1)C(=O)N([C@@H](C)CO)C[C@H](C)[C@H](CN(C)C(=O)C1CCCCC1)OCCCC[C@@H](C)O2
 : 17 | -7[16.7 µM]
67	C[C@@H]1CN([C@H](C)CO)C(=O)c2cc(NS(C)(=O)=O)ccc2O[C@H]1CN(C)CC1CCCCC1
 : -3 | 26[16.7 µM]
68	CC(=O)N(C)C[C@H]1Oc2ncc(C#CCC3CCCC3)cc2C(=O)N([C@H](C)CO)C[C@@H]1C
 : -7 | 8[16.7 µM]
69	C[C@@H]1CCCCO[C@H](CN(C)C(=O)CCCN(C)C)[C@@H](C)CN([C@@H](C)CO)C(=O)c2cc(NC(=O)CCC(F)(F)F)ccc2O1
 : 19 | 5[16.7 µM]
